UCH37 inh: human UCH37 deubiquitinating enzyme inhibition. 330,000 tested, 0.33% active. purified proteasome/UCH37, Ub-AMC cleavage fluorescence. AID 588478. Q9Y5K5. inhibition, % (test concentration not listed);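 active = mean of two replicates above 20%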;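 also: 0% = compound-free wells with enzyme and 100% = wells lacking proteasome; stock transfer was 100 nL into about 20 µL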
Target sequence (Q9Y5K5 whole entry, looked up): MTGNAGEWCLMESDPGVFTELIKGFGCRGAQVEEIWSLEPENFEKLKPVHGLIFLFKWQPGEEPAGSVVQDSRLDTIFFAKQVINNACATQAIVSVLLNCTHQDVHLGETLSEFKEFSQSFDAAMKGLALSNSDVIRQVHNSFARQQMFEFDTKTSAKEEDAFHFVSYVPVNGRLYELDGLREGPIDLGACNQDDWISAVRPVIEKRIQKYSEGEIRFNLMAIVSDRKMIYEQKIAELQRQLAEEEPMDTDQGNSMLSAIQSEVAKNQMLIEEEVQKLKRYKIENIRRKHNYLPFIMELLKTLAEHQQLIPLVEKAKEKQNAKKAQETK
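Schedule: 30 min plus 25 min, room temperature / Material: human UCH37 within purified proteasomes / Technique: AMC fluorescence intensity at 355/460 nm / Buffer or medium: pH 7.4 Tris-HCl (50 mM) with ovalbumin, ATP-MgCl2, DTT / Controls: wells without proteasome as full block, compound-free enzyme plus substrate as uninhibited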
HNF4A DNA FP: change in binding of human HNF4 alpha to DNA. P41235. AID 1224865. activity change, % at 10 µM. 360,000 tested, 0.3% active. HNF4a-FITC DNA binding, fluorescence polarization, 1 h; in the data active = activity change above about 30%, passing the limit was not always enough;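 also: controls were the assay level and a saturating level of protein; the project sought stronger binding though the title names inhibitors; some compounds called inactive have numbers as strong as hits; positive values seem to mean higher polarization but the record does not say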
Vif A3G: inhibitors of Vif binding to APOBEC3G peptide, primary screen, biochemical, TR-FRET, GST-Vif 1-94, biotin-A3G peptide, dose response retest (AID 1117319) | TR-FRET GST-Vif / biotin-A3G peptide binding; higher % means a stronger effect; test concentration not given here; strong numbers were not always called active | inhibition, %; hits with a dose series show IC50 in µM | 260,000 tested, 0.57% active;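 active = above the screen mean plus three standard deviations and confirmed in dose response; inconclusive = results disagree or hit not tested in dose response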;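 also: Vif residues 1-94 fused to GST binding biotinylated APOBEC3G peptide 110-148; 0% = full assay without inhibitor and 100% = GST in place of GST-Vif; retest series ran down from 100 µM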
AF4-AF9 inh: inhibitors of human MLL-AF4/AF9 interaction; P42568; AlphaScreen, biotin-AF4 peptide binding to FLAG-AF9; 350,000 tested, 0.47% active; AID 651704; inhibition, % at 10 µM;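 active = every replicate reaching a set inhibition limit, whatever the replicate mean, cut at about 25% in these data; inconclusive = mean inhibition reaches that limit but some replicates miss it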;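 also: 0% = plate neutral control median and 100% = total signal loss; the record names both 10 and 1 µM as test concentration; the first replicate is given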
Target sequence (P42568 whole entry, looked up): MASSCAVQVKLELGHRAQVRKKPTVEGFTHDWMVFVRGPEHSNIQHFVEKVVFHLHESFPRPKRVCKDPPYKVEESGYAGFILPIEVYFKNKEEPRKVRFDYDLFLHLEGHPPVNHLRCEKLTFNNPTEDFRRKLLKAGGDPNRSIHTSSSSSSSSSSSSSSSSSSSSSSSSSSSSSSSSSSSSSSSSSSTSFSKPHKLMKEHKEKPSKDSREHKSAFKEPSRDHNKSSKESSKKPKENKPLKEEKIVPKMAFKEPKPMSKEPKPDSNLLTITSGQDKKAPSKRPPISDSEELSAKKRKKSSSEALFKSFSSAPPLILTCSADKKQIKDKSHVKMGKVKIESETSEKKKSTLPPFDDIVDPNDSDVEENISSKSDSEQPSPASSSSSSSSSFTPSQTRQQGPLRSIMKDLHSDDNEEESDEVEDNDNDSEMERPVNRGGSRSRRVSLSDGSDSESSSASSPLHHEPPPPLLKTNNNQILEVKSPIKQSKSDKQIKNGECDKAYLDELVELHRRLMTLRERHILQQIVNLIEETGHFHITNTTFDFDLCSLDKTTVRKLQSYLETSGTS
E coli growth: E. coli growth inhibition; OD600 absorbance (concentration not given with the values); Escherichia coli growth, OD600, 23 h; active compounds read low; AID 1053175; 330,000 tested, 0.21% active;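 active = OD600 absorbance below the run mean of sample wells minus 3.6 SD, in any replicate, cut at about 0.56 in these data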;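 also: stock transfer was 300 nL into about 60 µL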
RanGTP-Imp inh: inhibitors of RanGTP-importin-beta interaction, primary screen, biochemical, FRET, CFP-Ran, YFP-importin-beta, homogeneous; AID 2216; cell-free CFP-Ran/YFP-importin-beta FRET ratio; 300,000 tested, 1.1% active; inhibition, % (concentration not given with the values);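 active = most replicates above 15%; inconclusive = exactly half above 15%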;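 also: 0% = DMSO wells and 100% = Ran loaded with GDP instead of GTP; wells of about 40 µL received 100 nL stock; the first replicate is given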
FGF22 binding: shifts melting point of recombinant human FGF22. recombinant FGF22 thermal shift, SYPRO orange fluorescence; percent of sucrose octasulfate shift, DMSO zero. calls only at 9.99 µM. 340,000 tested, 1.5% active. AID 651658;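 active = melting point raised past a set limit in the mean and every replicate; inconclusive = no clear call; three in four hits are not shown here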
Target sequence (Q9HCT0 whole entry, looked up): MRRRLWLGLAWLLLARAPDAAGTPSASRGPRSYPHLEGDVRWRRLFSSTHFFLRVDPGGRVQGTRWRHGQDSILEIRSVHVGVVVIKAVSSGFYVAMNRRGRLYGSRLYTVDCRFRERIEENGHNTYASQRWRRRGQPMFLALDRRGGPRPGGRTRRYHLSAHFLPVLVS
Active calls of the source: *; i = inactive; ? = inconclusive; . = not tested or not shown. A portion of the library; rates above refer to the full screens.

SMILES	UCH37 inh	HNF4A DNA FP	Vif A3G	AF4-AF9 inh	E coli growth	RanGTP-Imp inh	FGF22 binding
Cc1ccnc(N/C=C(\C#N)c2nc(-c3cccc(Br)c3)cs2)c1	2.0	-13	1%	.	0.65	56*	.
O=C(Cn1nnc2c(cnn2-c2ccccc2)c1=O)NCc1cccs1	-22	3.8	3%	.	0.74	-7.1	.
CC(=O)Nc1nc(CC(C)C)cc(-c2ccccc2)c1C#N	-1.1	-1.0	2%	1.3	0.63	0.6	i
CC(=O)Nc1ccc(NC(=S)NC(=O)c2ccc([N+](=O)[O-])cc2)cc1	1.7	-0.2	.	.	0.67	-3.7	.
COCC1CCN(C(=O)c2cc(COc3ccc(-n4cncn4)cc3)on2)CC1	1.8	0.7	.	0.3	0.71	2.4	i
CCCc1cc(=O)oc2c(C)c(OCC(=O)NC3CC(C)(C)NC(C)(C)C3)ccc12	-17	1.3	.	1.9	0.67	-0.4	i
Cc1ccc(C(=O)NCC(=O)OC(C)C(=O)NCCC2=CCCCC2)cc1C (stereo unspecified)	3.7	2.5	.	.	0.69	4.5	.
CCc1nc2ccc(C(=O)N3CCN(C(=O)c4ccco4)CC3)cn2c1N(C)Cc1nccs1	.	-0.9	.	-2.6	.	.	i
CN(C(=O)COC(=O)c1ccc(-c2ccc(O)cc2)cc1)C1CCS(=O)(=O)C1 (stereo unspecified)	3.9	0.7	.	?	0.72	0.1	i
COc1ccc(-c2nnc(-c3cc(OC)c(OC)c(OC)c3)o2)cc1OC	-23	0.0	6%	.	0.72	-2.2	.

3 records drawn at random from the list so far, as already listed:
SMILES	UCH37 inh	HNF4A DNA FP	Vif A3G	AF4-AF9 inh	E coli growth	RanGTP-Imp inh	FGF22 binding
CCc1nc2ccc(C(=O)N3CCN(C(=O)c4ccco4)CC3)cn2c1N(C)Cc1nccs1	.	-0.9	.	-2.6	.	.	i
CN(C(=O)COC(=O)c1ccc(-c2ccc(O)cc2)cc1)C1CCS(=O)(=O)C1 (stereo unspecified)	3.9	0.7	.	?	0.72	0.1	i
CC(=O)Nc1ccc(NC(=S)NC(=O)c2ccc([N+](=O)[O-])cc2)cc1	1.7	-0.2	.	.	0.67	-3.7	.

Next section
SMILES	UCH37 inh	HNF4A DNA FP	Vif A3G	AF4-AF9 inh	E coli growth	RanGTP-Imp inh	FGF22 binding
CC1CC(C)CN(CC(=O)NCCc2ccc(S(N)(=O)=O)cc2)C1 (stereo unspecified)	0.7	-2.3	9%	-0.5	0.71	-0.7	i
CCCCn1c(=O)[nH]c(=O)c2c1nc(-c1cccc(OC)c1)n2C	0.8	-1.3	.	0.2	0.68	5.8	i
Cc1nc2cc(-c3cccc(F)c3)nn2c(C)c1CCC(=O)NC(C)CCc1ccco1 (stereo unspecified)	-12	-1.8	-1%	.	0.72	-2.1	.
O=C(c1ccc(F)cc1)c1ccc(-c2ccc(F)cc2)nc1	2.7	-3.5	-79%	-1.5	0.68	6.7	i
COc1cc(C)c(CN2CCN(C(C)C(=O)NC(C)c3ccccc3)CC2)cc1OC (stereo unspecified)	0.3	-2.2	-2%	-1.8	0.68	-0.2	i
NC(=O)/C(=C\c1ccncc1)c1cccc2ccccc12	4.3	1.5	-13%	-0.7	0.66	-2.0	i
O=C(Nc1nc2c(Cl)cccc2s1)c1ccc([N+](=O)[O-])o1	-0.4	1.7	.	-7.3	0.5*	-3.6	i
CCN1C(=O)c2ccccc2S(=O)c2ccc(C(=O)N3CCCCCC3)cc21 (stereo unspecified)	2.9	2.0	13%	2.4	0.79	1.4	i
CCN(CC(=O)NCc1ccc(Cl)cc1)C(=O)COc1cccc(C(F)(F)F)c1	2.3	5.3	3%	17	0.64	-0.3	i
O=C(Nc1ccc2c(c1)CCCN2C(=O)c1ccco1)c1cc([N+](=O)[O-])ccc1Cl	1.2	-0.6	-3%	2.2	0.66	3.7	i
O=C1C2C3c4ccccc4C(c4ccccc43)C2C(=O)N1Cc1cccnc1 (stereo unspecified)	1.0	-0.6	10%	.	0.72	1.4	.
O=C(COC(=O)C1CCN(S(=O)(=O)c2cccc3cccnc23)CC1)c1ccc(F)cc1	2.1	-0.7	6%	.	0.78	7.5	.
CC1(C(=O)N2CCC(CC3CC(c4ccc(Cl)cc4)=NO3)(C(=O)NCC3CCCCC3)CC2)CC1 (stereo unspecified)	4.6	-3.1	.	0.2	0.67	2.6	i
CCOc1ccc(NC(=O)c2cc3n(n2)C(C(F)(F)F)CC(c2ccco2)N3)cc1 (stereo unspecified)	0.4	2.6	-1%	.	0.68	1.2	.
CC1=CC(C)(C)Nc2ccc(OC(=O)C(Cc3ccccc3)N3C(=O)C4CCCCC4C3=O)cc21 (stereo unspecified)	-30	-1.8	13%	.	0.73	-1.3	.
COc1ccc(NC(=O)CN(C)C(=O)c2ccc3c(c2)S(=O)(=O)N=C2CCCCCN23)cc1	1.0	-4.2	.	-2.6	0.75	-1.1	i
CCN(C[C@H]1N[C@@](C)(C(=O)OC)[C@H]2C(=O)N(Cc3ccccc3)C(=O)[C@@H]12)C(=O)Nc1ccc(OC)cc1	5.1	6.0	2%	0.1	0.71	.	i
COc1ccc(C2(C)NC(=O)N(CC(=O)c3ccc4c(c3)OCO4)C2=O)cc1 (stereo unspecified)	-1.9	-3.2	.	0.5	0.74	4.6	i
CC(Sc1ncccn1)C(=O)NC1(C#N)CCCCC1 (stereo unspecified)	-3.2	0.0	-9%	0.1	0.7	.	i
COc1cc(NC(=O)Cn2c(=O)n(CC3CCCO3)c(=O)c3ccccc32)cc(OC)c1 (stereo unspecified)	3.0	5.0	-2%	-2.0	0.69	-0.6	i
Cc1c(NC(=O)COC(=O)c2cccc(F)c2)c(=O)n(-c2ccccc2)n1C	.	-0.1	-3%	-1.4	.	.	i
S=c1[nH]c(-c2ccccc2)cn1-c1ccccc1	3.8	-3.6	0%	5.5	0.65	-0.2	i
COc1ccc([C@@H]2[C@@H]3C(=O)N(C(C)(C)C)C(=O)[C@@H]3[C@]3(CC(C)C)C(=O)N(c4cccc(Br)c4)C(=O)N23)cc1	0.0	-0.5	.	-0.9	.	-0.1	i
COc1ccc(-n2ncc3c(NCCN4CCOCC4)ncnc32)cc1	1.1	3.4	-5%	.	0.71	3.1	.
CC(O)CNc1ccc(-c2n[nH]c(=O)c3ccccc23)cc1[N+](=O)[O-] (stereo unspecified)	5.1	3.4	9%	1.7	0.63	-4.4	i
CNC(=O)NC(=O)C(C)OC(=O)CCCSc1nc2ccccc2s1 (stereo unspecified)	1.5	4.5	.	1.9	0.67	-1.0	i
O=C(Nc1nn[nH]n1)c1ccc(S(=O)(=O)N2CCCCC2)cc1	3.6	1.2	?	-1.1	0.64	2.1	i
CCOc1ccccc1N1CCN(C(=O)c2cc3cc(OC)ccc3[nH]2)CC1	-6.7	3.3	0%	.	0.64	-1.8	.
O=C(c1cccc(S(=O)(=O)N2CCOCC2)c1)N1CCN(C/C=C/c2ccccc2)CC1	3.6	0.6	.	1.7	0.68	.	i
COc1ccccc1-c1noc(CCC(=O)Nc2cccnc2)n1	.	4.2	.	-1.2	.	.	i
COc1ccc(-n2c(SCC3CNC(=O)O3)nnc2-c2ccc(Cl)cc2)cc1 (stereo unspecified)	0.2	-1.1	.	-2.1	0.67	4.9	i
CCN(c1ccc(NC(=O)COC(=O)CCc2cc(OC)c(OC)c(OC)c2)cc1)C(C)C	1.9	-3.4	-1%	13	0.66	-1.6	i
COC(=O)c1ccc(Oc2c(C)oc3c(CN4CCN(C)CC4)c(O)ccc3c2=O)cc1	i	-4.5	-1%	.	0.68	2.7	.
CCc1nc2ccccc2c(C(=O)OCC(=O)N(CCOC)c2c(N)n(Cc3ccccc3)c(=O)[nH]c2=O)c1C	4.4	-1.0	3%	1.1	0.7	.	i
CC1(C(=O)NS(=O)(=O)Cc2ccccc2C(F)(F)F)CCN1C(=O)C/C=C/c1ccccc1 (stereo unspecified)	.	4.3	.	-3.8	.	.	i
COC(=O)c1cc(NS(=O)(=O)c2ccc3c(c2)CCC(=O)N3)cc(C(=O)OC)c1	-9.9	2.3	-3%	4.7	0.7	0.2	i
Cc1c(Cc2ccccc2)c(=O)oc2cc(OCC(=O)N3CCC(C(N)=O)CC3)ccc12	-180	2.3	.	4.0	0.72	1.5	i
COc1cccc(C2C(C(N)=O)=C(C)Nc3nc(-c4cccc(Cl)c4)nn32)c1 (stereo unspecified)	-1.6	-2.2	-1%	.	0.7	-0.8	.
CCN1C(=O)N[C@@H](c2ccc(Br)cc2)C(C(=O)OC)=C1C	4.5	2.0	1%	-3.4	.	.	i
Cc1c(OCC(=O)NCCCN2CCOCC2)ccc2c(-c3ccccc3)cc(=O)oc12	-1.7	0.1	-3%	8.8	0.7	?	i
CC1COC(c2cccn2Cc2ccccc2Cl)=N1 (stereo unspecified)	0.6	2.3	14%	.	0.66	5.6	.
Cc1nc(CS(=O)(=O)c2ccccc2)cc(Sc2ccc(Cl)cc2)n1	4.9	3.5	0%	.	0.79	0.3	.
O=C(CC1(CC(=O)N2CCOCC2)CCCC1)Nc1ccccc1	-0.3	0.8	-3%	4.0	0.69	.	i
Cc1noc(C)c1COC(=O)C1CCN(S(=O)(=O)c2c(Cl)cccc2Cl)CC1	3.4	-1.2	-7%	-1.5	0.7	.	i
COc1cc(C(=O)OCC(=O)NCCCc2ccccc2)ccc1OCC(C)C	-1.2	1.4	.	-0.4	0.66	-2.3	i
c1ccc2c(c1)c1c3n2CCNC3CCC1 (stereo unspecified)	5.4	3.1	-3%	.	0.76	-4.4	.
CN(C)S(=O)(=O)Oc1cc(Cl)ccc1C(=O)Nc1ccc(F)cc1F	2.9	-6.2	.	1.1	0.66	4.3	i
S=C(NCc1ccccc1)Nc1ccc2cn[nH]c2c1	2.5	-2.2	5%	-0.2	0.68	-2.4	i
CC(C)=N/N=C1/NC(=O)C(Cc2ccccc2)S1 (stereo unspecified)	0.0	-2.1	-4%	1.0	0.67	-2.2	i
COc1ccc(-c2cnc3c(NC(C)=O)cc(-c4cccc(C(=O)NCCO)c4)cn23)cc1OC	.	4.5	.	-3.3	.	.	i
Going on with the list.
SMILES	UCH37 inh	HNF4A DNA FP	Vif A3G	AF4-AF9 inh	E coli growth	RanGTP-Imp inh	FGF22 binding
Cc1cc(C(=O)O)sc1C	4.2	-2.5	-1%	.	0.7	-1.6	.
CN1CCN(c2ccc(Cl)cc2NS(=O)(=O)c2ccccc2Cl)CC1	1.8	-0.7	10%	.	0.71	?	.
O=C(O)[C@H](Cc1ccccc1)N1C(=O)c2ccncc2C1=O	1.1	-2.2	5%	.	0.71	0.3	.
CCCN(CCC)C1CC(=O)N(Cc2ccccc2)C1=O (stereo unspecified)	-3.6	-0.2	20%	.	0.72	2.4	.
O=[N+]([O-])c1cccc(NNS(=O)(=O)c2ccccc2F)c1	0.9	0.8	5%	4.3	0.6	?	i
Cc1ccc(C(=O)ONc2ccc(N=NC(=O)c3ccccc3O)cc2)cc1	27*	-20	?	.	0.63	?	.
O=C(Nc1ccc(N2CCOCC2)cc1N1CCOCC1)c1ccc(F)cc1	1.7	-3.3	.	3.2	0.68	.	i
Cc1[nH]c2ccccc2c1C(=O)CSc1nc2ccccc2[nH]1	7.2	3.0	30%	-13	0.62	-4.6	i
Cn1cccc1/C=C1\CCC/C(=C\c2cccn2C)C1=O	6.2	146	3.1µM*	.	0.7	-1.3	.

A portion of the results above, as a working copy:
SMILES	UCH37 inh	HNF4A DNA FP	Vif A3G	AF4-AF9 inh	E coli growth	RanGTP-Imp inh	FGF22 binding
Cc1ccc(C(=O)ONc2ccc(N=NC(=O)c3ccccc3O)cc2)cc1	27*	-20	?	.	0.63	?	.
O=C(Nc1ccc(N2CCOCC2)cc1N1CCOCC1)c1ccc(F)cc1	1.7	-3.3	.	3.2	0.68	.	i
Cc1[nH]c2ccccc2c1C(=O)CSc1nc2ccccc2[nH]1	7.2	3.0	30%	-13	0.62	-4.6	i

Screening data as filed in PubChem.
